# Screening results from PubChem.
# HSV augment – HSV replication enhancement | HSV replication augmentation in cells, fold increase | maximum fold increase | 0.005% of 220,000 active;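 active = peak rise of 1.5-fold or more in the series; inconclusive = self-fluorescent or not available for retest; tested in PC3 cells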;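 also: first round at 10 µM; read as green reporter fluorescence; hits show the peak of a series up to 25 µM; 1 = signal of infected wells without compound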
# PKD1 kinase inh – PKD1 (human) kinase inhibition; PKD1 kinase fluorescence polarization assay; AID 797; inhibition, %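 (about 10 µM by stock and volumes)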; 0.056% of 200,000 active; Q15139;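 active = inhibition of 50% or more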;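 also: controls were vehicle for no effect and a reference inhibitor for full effect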
# GALR2 ag – GALR2 (human) receptor agonism | AID 803 | O43603 | GALR2-expressing cells, agonist activation read-out | activation, %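 (tested at 5 µM)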 | 0.48% of 140,000 active;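 active = above mean plus 3 SD of all compounds, about 5% in these data, not always enough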;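 also: 0% = vehicle buffer wells and 100% = reference agonist at full effect; tested in CHO reporter cells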
# Target sequence (O43603 whole entry, looked up): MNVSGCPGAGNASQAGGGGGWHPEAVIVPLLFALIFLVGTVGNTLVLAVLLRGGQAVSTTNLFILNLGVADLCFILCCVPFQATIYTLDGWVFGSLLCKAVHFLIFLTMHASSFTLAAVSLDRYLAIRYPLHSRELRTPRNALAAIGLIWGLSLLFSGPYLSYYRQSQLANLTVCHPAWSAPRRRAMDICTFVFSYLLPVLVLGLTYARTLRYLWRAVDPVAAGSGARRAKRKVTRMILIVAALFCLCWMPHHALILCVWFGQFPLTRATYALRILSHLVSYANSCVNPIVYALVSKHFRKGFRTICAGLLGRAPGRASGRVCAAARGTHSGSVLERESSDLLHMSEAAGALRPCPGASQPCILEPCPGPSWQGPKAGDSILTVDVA
# INS promoter inh – TRM-6 insulin promoter activity inhibition. TRM-6 cells (human fetal islet line), insulin promoter-eGFP reporter, imaging; reporter expression induced with tamoxifen. inhibition, % at 2 µM. 0.9% of 130,000 active;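 active = inhibition above the mean plus 3 SD, with well images judged a real hit on visual review, cut at about 60% in these data, passing the limit was not always enough; inconclusive = inhibition over the cutoff but images rejected on review; inactive = inhibition not above the cutoff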
# RGS16-Gao – regulators of human RGS16-Galphao interaction; O15492+P09471; bead-based flow cytometry RGS16-Galphao binding, fluorescence; actives lie on both sides; binding response (% of control), % at 10 µM; 0.38% of 220,000 active; AID 1441;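 active = below 25% or above 175%, edge rows of some plates excepted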;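 also: Galphao activated by GDP with aluminum fluoride before binding; 100% = wells without compound and 0% = beads without RGS; some results beyond the cut were filed as inactive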
# Target sequence (O15492 whole entry, looked up): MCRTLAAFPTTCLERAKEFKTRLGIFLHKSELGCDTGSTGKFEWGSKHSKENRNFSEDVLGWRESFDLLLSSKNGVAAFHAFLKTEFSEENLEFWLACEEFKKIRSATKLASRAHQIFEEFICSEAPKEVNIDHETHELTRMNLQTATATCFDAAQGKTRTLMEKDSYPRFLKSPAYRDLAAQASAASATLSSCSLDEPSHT
# Target sequence (P09471 whole entry, looked up): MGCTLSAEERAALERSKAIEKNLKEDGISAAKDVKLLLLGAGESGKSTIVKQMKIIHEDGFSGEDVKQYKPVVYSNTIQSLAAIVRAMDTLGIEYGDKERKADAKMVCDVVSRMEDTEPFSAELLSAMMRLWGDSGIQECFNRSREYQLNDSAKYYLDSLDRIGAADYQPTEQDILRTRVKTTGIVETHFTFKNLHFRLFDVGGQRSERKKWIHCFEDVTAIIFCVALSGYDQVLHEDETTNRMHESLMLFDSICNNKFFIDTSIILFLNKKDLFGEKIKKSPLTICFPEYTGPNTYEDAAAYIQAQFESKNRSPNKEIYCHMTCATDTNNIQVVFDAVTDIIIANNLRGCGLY
# INS promoter inh cell count – second read-out of INS promoter inh, no call of its own (marks repeat the call); normalized cell count, %; measured here: cell count, toxicity; reference of the scale not given here;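 cells exposed to compound for 48 h; stained nuclei by imaging scaled within each plate; lower means fewer cells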
# HSV augment primary fold – recorded beside HSV augment, whose call it bears; fold increase; compound at 10 µM; measured here: primary screen fold increase 10 uM; tested in PC3 cells;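 GFP signal in the first replicate; 1 = infected wells without compound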
# * = called active by the depositor; i = inactive; ? = inconclusive; . = no result given.
SMILES,HSV augment,HSV augment primary fold,PKD1 kinase inh,GALR2 ag,INS promoter inh,INS promoter inh cell count,RGS16-Gao
Cc1csc(N(C)C(=O)CSc2nnc(COc3cccc4ccccc34)o2)n1,i,0.91,4,-2.9,.,.,104
CC/C(=N\Nc1ccc([N+](=O)[O-])cc1)c1ccccc1,i,1,2,.,-42,113,103
COc1ccc(CN2CCCCC2C(=O)Nc2ccc(OC)c(OC)c2)cc1OC (configuration not stated),i,1,7,-1.8,.,.,103
O=C(CC1Sc2ccccc2NC1=O)Nc1cccnc1 (configuration not stated),i,0.82,-7,1.1,-13,105,98
O=C(CN(Cc1ccco1)S(=O)(=O)c1ccccc1)N/N=C/c1ccccc1C(=O)O,i,0.99,-6,.,.,.,116
N#CCC(=O)N/N=C/c1ccc(Sc2nc3ccccc3s2)o1,i,0.94,3,-2.2,-16,173,102
COc1ccc(NC(=O)[C@H](C)NC(N)=O)cc1S(=O)(=O)Nc1cc(C)ccc1Br,i,1,-5,.,-20,94,94
CCNC(=S)N1CCC(C(N)=O)CC1,i,0.99,.,.,.,.,96
COc1ccc(C(=O)NCCC2=CCCCC2)cc1OC,i,0.93,-4,-0.5,-7,128,108
COc1ccc(-c2noc(C3CCCN(C(=O)c4cccs4)C3)n2)cc1 (configuration not stated),i,0.9,4,-1.2,.,.,98
FC(F)(F)Oc1ccc(-c2cn3cccnc3n2)cc1,i,0.9,.,.,.,.,95
CCOC(=O)CSc1nc2c(c(=O)[nH]c(=O)n2C)n1CCCc1ccccc1,i,1.1,3,0.2,-15,113,105
N=C1C(c2nc3ccccc3s2)=C(O)CN1Cc1ccccc1,i,0.91,-6,-0.6,16,114,85
O=[N+]([O-])c1ccc2c(OCc3nnc(-c4ccccc4Br)o3)ncnc2c1,i,0.95,.,.,.,.,94
CCOc1cc(O)c(-c2[nH]ncc2-c2nc(C)cs2)cc1CC,i,0.76,.,.,.,.,87
O=C(C1CCCO1)N1CCN(C(=S)Nc2ccccc2C(F)(F)F)CC1 (configuration not stated),.,.,-9,-1.3,.,.,106
O=C(O)COc1ccc(-c2nccc(-c3ccccn3)n2)cc1,i,0.88,-2,.,.,.,97
Cc1ccc(S(=O)(=O)/N=C(/Nc2ccc3[nH]c(=O)[nH]c3c2)c2ccc(F)cc2)cc1,i,0.98,-2,.,-47,69,100
COc1cc(C(=O)OC(C)CN2CCCC2)cc(OC)c1OC (configuration not stated),i,1.1,-13,-2.5,62,58,42
O=c1cc(N2CCCCC2)c(-c2ccccc2)nn1Cc1c(Cl)cccc1Cl,.,.,-4,-0.8,-16,60,101
O=C(CSc1n[nH]c(=O)n1C1CC1)Nc1ccc(Cl)c(Cl)c1,i,0.97,.,.,.,.,90
Cc1ccc2ccccc2c1Cn1c(-n2ccnc2)nc2c1c(=O)n(C)c(=O)n2C,i,0.99,10,-1.3,-16,105,99
COC(=O)c1ccc(CSc2nc3ccc(Cl)cc3[nH]2)o1,i,0.89,-5,-2.3,-11,156,102
CC(NS(=O)(=O)c1ccc(OCC(=O)N2CCOCC2)cc1)c1ccccc1 (configuration not stated),i,0.93,-3,-0.5,-42,102,107
O=C(c1ccc(Cn2c(=S)[nH]c3cc4c(cc3c2=O)OCO4)cc1)N1CCN(c2ncccn2)CC1,i,0.84,3,.,-7,132,103
CC(C)(C)CN1CCNC(=O)C1CC(=O)NC1Cc2ccccc2C1 (configuration not stated),i,1,0,.,.,.,96
COc1ccc(N(C)S(=O)(=O)c2ccc3c(c2)CCC(=O)N3)cc1,i,0.94,9,-1.6,.,.,107
CC1=C(C(=O)Nc2ccccc2)C(c2ccc(C)o2)n2ncnc2N1 (configuration not stated),i,0.94,-1,-2.3,.,.,54
CCN(c1ccccc1)S(=O)(=O)c1ccc(Oc2ccc(-n3ccnc3)cc2)nc1,i,0.79,22,-1.9,-133,17,114
CCOC(=O)c1c(NC(=O)c2ccco2)sc2c1CCCC2,i,0.92,-15,-1.3,.,.,100
O=C(CSc1nc(-c2ccc(F)cc2)cc(C(F)(F)F)n1)NCc1ccco1,i,0.76,-12,0.2,-9,111,69
CN1CCN(C(=O)C23CC4CC(C2)CC(c2ccccc2)(C4)C3)CC1,i,0.92,6,.,.,.,102
O=C(Nc1cccc(F)c1)c1ccc2c(c1)OCO2,i,0.8,-6,-2.3,-39,92,100
c1ccc(-c2nnc(CSc3nc4ccccc4[nH]3)o2)cc1,i,0.56,-6,-1.9,.,.,105
Cc1ccc(NC(=O)Nc2ccccc2C(=O)NCc2ccccc2)cc1,i,0.99,-4,-2.7,14,80,104
COc1ccccc1CNc1nc2nc(C)cc(=O)n2[nH]1,i,1.2,-2,-2.4,38,138,105
Cc1ccc(NC(=O)c2oc3ccc(S(=O)(=O)N4CCOCC4)cc3c2C)c(C)c1,i,1.1,-1,.,.,.,100
CCCc1c(C)c(C#N)c2nc3ccccc3n2c1NCCCN1CCOCC1,i,0.87,-1,-2.8,-17,121,109
CC1(C2CC2)NC(=O)N(CC(=O)Nc2ccccc2-c2ccccc2)C1=O (configuration not stated),i,1,1,.,-57,79,103
CCOC(=O)c1cnc2ccc(OCC)cc2c1N1CCN(c2ccccc2OC)CC1,i,0.97,-8,0.2,-66,89,98
CC1(C)Cc2cccc(OCC(=O)N3CCN(c4ccccc4)CC3)c2O1,i,1.1,-12,0.2,.,.,104
COc1cccc(SCC2CSc3nc4ccccc4c(=O)n32)c1 (configuration not stated),i,1.1,3,.,-7,84,100
O=C(COC(=O)c1cccnc1)c1ccc(Cl)c(Cl)c1,i,0.89,-5,-2.6,-64,54,101
c1ccc(-n2nnnc2NC2CCCCC2)cc1,i,1.1,-9,-1.1,-38,80,105
C=CCC1CCCCC12NC(=O)N(c1ccccc1)N2 (configuration not stated),i,1.1,.,.,.,.,101
COc1ccc(NC(=O)CN2CCC(C(N)=O)CC2)cc1,i,1,-5,1.9,50,156,120
O=C(Cc1cn2ccsc2n1)Nc1cccc2cnccc12,i,1,-4,0.2,.,.,102
CC(=O)c1cccc(S(=O)(=O)N2CCN(c3ccccc3F)CC2)c1,i,0.91,-1,.,.,.,104
O=C(Nc1cccc2ccccc12)/C(=C/c1cccc([N+](=O)[O-])c1)NC(=O)c1cccs1,i,1,-12,-2.2,.,.,84
COc1ccc(OC)c(NC(=O)CSc2nc3ccccc3c(=O)n2CCNC(C)=O)c1,i,0.86,-9,0.1,3,59,98
Cc1ccc(-c2nn(-c3ccccn3)c(=O)c3ccccc23)cc1C,i,1,.,.,.,.,96
c1ccc2c(c1)nc(CN1CCOCC1)n1c3ccccc3nc21,i,1,-2,-2.2,14,106,101
CC(=O)Nc1cccc(NC(=O)c2c(-c3ccccc3Cl)noc2C)c1,i,0.92,3,-2.2,.,.,77
Cc1cc2cc(C)c3nnc(SCC(=O)NCc4ccco4)n3c2cc1C,i,0.97,-3,1.7,21,122,96
Cc1cc2cc(CNC(=O)c3cccs3)ccc2n1C,?,.,0,0.3,-7,84,95
COc1cc(NC(=O)c2nccnc2N)cc(C(=O)Nc2cccc(C(F)(F)F)c2)c1,i,0.8,.,.,.,.,99
O=c1[nH]c(SCc2ccc(Cl)cc2)nc2ccsc12,i,0.66,-1,.,.,.,101
C/C(=N\Nc1nc2ccc(Cl)cc2o1)c1ccccc1,i,1.1,.,.,.,.,100
O=C(Cc1nc2ccccc2s1)c1ccc(O)cc1O,i,1.2,-13,-0.8,38,69,100
COc1ccc(-c2cnc3nc(/N=C/N(C)C)nn3c2/N=C/N(C)C)cc1,i,0.95,3,.,36,116,105
# Next part.
SMILES,HSV augment,HSV augment primary fold,PKD1 kinase inh,GALR2 ag,INS promoter inh,INS promoter inh cell count,RGS16-Gao
CCCCCc1cc(=O)oc2c(C(CCN3CCN(c4ccccc4)CC3)c3ccc4c(c3)OCO4)c(OC)cc(OC)c12 (configuration not stated),i,0.84,.,.,.,.,100
COCCNC(=O)CSc1nc2cc(OC)c(OC)cc2c(=O)n1Cc1ccc(OC)cc1,i,1,1,-1.8,38,107,99
COc1ccc(OC)c(S(=O)(=O)Nc2cccc(F)c2)c1,i,1,-3,-1.2,4,150,95
CCNC(=O)NC(=O)C(C)Sc1ccc2c(c1)OCCO2 (configuration not stated),i,1,-7,-1.8,3,221,100
COc1ccccc1CC(=O)NCCc1ccc(S(N)(=O)=O)cc1,i,1.1,-6,-1.3,62,144,101
CC(=O)Nc1ccccc1C(F)(F)F,i,0.97,.,.,.,.,30
O=C(CC(=O)Nc1ccccn1)Nc1ccccn1,i,0.79,4,-1.3,18,123,99
O=C(O)CCN1C(=O)c2ccc(NC(=O)CSCc3ccccc3)cc2C1=O,i,1.1,-4,-0.9,-26,60,112
CC(NC(=O)CCc1nnc(C2CCCCC2)o1)c1ccc(F)cc1 (configuration not stated),i,0.95,5,.,.,.,101
CCC(=O)Nc1ccc(NC(=O)c2cc3ccccc3o2)cc1,i,0.86,-1,-0.5,.,.,106
CCCS(=O)(=O)N1CCC(C(=O)NCCCN2CCC(Cc3ccccc3)CC2)CC1,i,0.95,0,-1.6,6,53,103
Cc1cc(NC(=O)CSc2ccccc2)no1,i,0.93,-9,0.7,-22,147,79
Cc1ccc(C)c(NC(=S)N(CCc2nc3cc(C)c(C)cc3[nH]2)Cc2cccnc2)c1,i,0.82,6,0.1,-32,114,97
COc1ccc(N2CS(=O)CC2=O)cc1 (configuration not stated),i,0.95,2,.,14,118,97
O=C(Nc1ccccc1)Nc1ccc2ocnc2c1,i,1.1,-6,.,-42,48,68
CS(=O)(=O)N1CCN(c2nnc(-c3ccccc3)c3ccccc23)CC1,i,0.66,-3,-0.3,-24,119,131
Cc1cc(NS(=O)(=O)c2ccc(NC(=O)CSc3nc4sc(C(=O)O)c(C)c4c(=O)[nH]3)cc2)no1,i,0.98,4,.,47,115,105
O=C(CC1Sc2ccccc2NC1=O)NCc1ccc(Cl)cc1 (configuration not stated),i,1.1,8,.,27,76,97
CCOc1cc(/C=C2\SC(=N)N(c3nccs3)C2=O)ccc1OCCN1CCOCC1,i,0.97,18,-0.2,-375,10,104
CN1CCN(C(=S)NC(=O)c2ccco2)CC1,i,0.96,4,.,.,.,110

# Some of the entries above, reformatted.
# Below each SMILES: HSV augment | HSV augment primary fold | PKD1 kinase inh | GALR2 ag | INS promoter inh | INS promoter inh cell count | RGS16-Gao
CCOC(=O)c1c(NC(=O)c2ccco2)sc2c1CCCC2
 : i | 0.92 | -15 | -1.3 | . | . | 100
O=C(CSc1nc(-c2ccc(F)cc2)cc(C(F)(F)F)n1)NCc1ccco1
 : i | 0.76 | -12 | 0.2 | -9 | 111 | 69

# Next section
SMILES,HSV augment,HSV augment primary fold,PKD1 kinase inh,GALR2 ag,INS promoter inh,INS promoter inh cell count,RGS16-Gao
COCCNC(=S)Nc1ccccn1,i,0.98,-4,.,.,.,113
COc1ccc2[nH]cc(CCn3ccc(O)c(C/C=C/c4ccccc4)c3=O)c2c1,i,0.99,7,.,.,.,98
Cc1noc(C)c1CN(C(=S)NC1CC2CCC1C2)c1ccccc1 (configuration not stated),i,0.97,-6,.,.,.,102
CCOC(=O)COc1ccc(S(=O)(=O)NCc2ccco2)cc1,i,0.94,-10,-1.3,52,64,100
CN1C(=O)C2CN(CCc3ccccc3)CNC2N(C)C1=O (configuration not stated),i,0.9,2,-0.9,-37,56,93
CC(=O)COC(=O)CNC(=O)c1ccc(Br)cc1,i,0.94,0,-1.5,22,82,.
COc1ccccc1Oc1ncnc2sccc12,i,1,-3,.,.,.,97
COc1ccc(OCCCC(=O)Nc2cccc(C(C)=O)c2)cc1,i,0.95,-7,-2.4,.,.,106
COc1cc2oc3ccccc3c2cc1N(CC(=O)N1CCCCC1)S(=O)(=O)c1ccc(C)cc1,i,1.1,9,-1.7,-3,81,104
CCOc1ccc2[nH]c(=O)c(C(c3nnnn3CCOC)N3CCOCC3)cc2c1 (configuration not stated),i,0.93,7,2.2,-64,62,104
CCN1CCC2(CCN(Cc3cn[nH]c3-c3ccc(OC)c(F)c3)C2)C1 (configuration not stated),i,0.93,-4,.,.,.,91
COC(=O)c1ccc(C(=O)OCc2nc3cc4ccccc4cc3[nH]2)cc1,i,0.81,-6,-3.9,-362,34,99

# Four records drawn at random from the list so far:
SMILES,HSV augment,HSV augment primary fold,PKD1 kinase inh,GALR2 ag,INS promoter inh,INS promoter inh cell count,RGS16-Gao
O=C(Cc1cn2ccsc2n1)Nc1cccc2cnccc12,i,1,-4,0.2,.,.,102
COC(=O)c1ccc(C(=O)OCc2nc3cc4ccccc4cc3[nH]2)cc1,i,0.81,-6,-3.9,-362,34,99
O=C(C1CCCO1)N1CCN(C(=S)Nc2ccccc2C(F)(F)F)CC1 (configuration not stated),.,.,-9,-1.3,.,.,106
CC(=O)COC(=O)CNC(=O)c1ccc(Br)cc1,i,0.94,0,-1.5,22,82,.
